# ClpP mod: qHTS Assay for Activators of ClpP. ATP-dependent Clp protease proteolytic subunit (Bacillus subtilis (strain 168)), P80244. purified B. subtilis ClpP, FRET peptide cleavage, 20 min. Potency, µM (series often up to 57.5 µM), without a hit: at the highest dose activity change, negative = active. 1.9% of 340,000 active. AID 651965, 2013; active = well fitted falling curve with a large enough effect; inconclusive = small, poorly fitted or top-dose-only effect; inactive = no such curve, though single readings can be large or run the other way; note: the source files actives as falling curves though it sought activators and does not explain the sign; nearly all actives have a fitted effect of over 65% in size; many hits overshoot -100%
# Target sequence (P80244 whole entry, looked up): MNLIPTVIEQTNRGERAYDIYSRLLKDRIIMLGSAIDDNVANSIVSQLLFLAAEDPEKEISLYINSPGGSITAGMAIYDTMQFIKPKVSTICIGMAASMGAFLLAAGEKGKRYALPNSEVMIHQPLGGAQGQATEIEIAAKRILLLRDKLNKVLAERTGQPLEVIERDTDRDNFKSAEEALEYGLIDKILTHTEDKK
#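 Purified B. subtilis ClpP, 10 microg/mL final in Tris/HCl pH8 with KCl, BSA, glycerol and Tween-20, cleaved an Abz/nitrotyrosine-quenched decapeptide. Fluorescence (ex 320, em 430) was read at 0 and 20 min at room temperature. Delta was normalized to 5.8 microM ADEP and DMSO/no-enzyme controls.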
# The depositor's hits bear a star; ? = inconclusive. Potency is the fitted concentration of half-maximal effect. Only part of the results is shown. The share of hits here may be higher or lower than overall.
SMILES	ClpP mod
CC(=O)Nc1nonc1-c1nnc(SCC(=O)Nc2cccc(F)c2)n1-c1ccccc1	-0.9%
O=C(Nc1cccc(C(F)(F)F)c1)Nc1cccs1	0.0%
COc1ccccc1C(=O)Nc1ccc2nc(N3CCC(C)CC3)cc(C)c2c1	-17%
Cc1ccc(Cc2c(C)nc3nc(SCC(=O)NC(C)c4ccccc4)nn3c2C)cc1 (stereo unspecified)	-7.4%
Cc1ccc(-c2cn(-c3cccc(Cl)c3)c(S(=O)(=O)CC(=O)Nc3cccc(C)c3)n2)cc1	-0.9%
Cc1cccc2sc(N(Cc3cccnc3)C(=O)c3ccco3)nc12	12%
Cc1ccc(C)c(Cn2c(=O)cc(C)c3c(C)nn(C)c32)c1	-16%
Cc1ccc(S(=O)(=O)N2CCN(Cc3nc4ccc(C)cc4o3)CC2)cc1	-2.9%
Cc1nc2nc(SCc3ccc(F)cc3Cl)nn2c(C)c1Cc1ccccc1	?
Cn1ncc(C(=O)N2CCN(c3ccccc3)CC2)c1C1CCN(C(=O)OC(C)(C)C)CC1	-1.6%
Cc1ccc2cc3cc(C(=O)Nc4ccc(F)cc4Cl)oc3nc2c1	14%
Cc1ccccc1C(=O)Nc1cccc(-c2nnc(SCC(=O)NCc3ccco3)n2C)c1	1.0%
CCCCNC(=O)c1ccc2c(=O)n(-c3ccccc3)c(=O)[nH]c2c1	4.2%
Cn1c(=O)oc2cc(S(=O)(=O)N3CCC(C(=O)N4CCN(c5cccc(Cl)c5)CC4)CC3)ccc21	-1.4%
COc1ccc(CC(=O)Nc2nnc3n2CCS3)cc1	0.3%
Cc1ccc(CCNC(=O)c2cc3c(=O)oc4ccccc4c3s2)cc1	-1.5%
CCc1cccc(NC(=O)CSc2n[nH]c(-c3ccccc3Cl)n2)c1	-1.8%
CCOc1ccc(-c2cc(C(=O)N3CCN(S(=O)(=O)c4cc(Cl)ccc4OC)CC3)[nH]n2)cc1	-1.8%
O=C(Cn1c(=O)n(-c2ccc(F)cc2)c(=O)c2sc3ccccc3c21)N1CCCC1	3.8%
CCc1ccc(S(=O)(=O)c2nnn3c2nc(NC(C)C)c2cc(Cl)ccc23)cc1	-9.7%
CCn1cc(C(=O)Nc2cccc(Cl)c2)c2cc(OC)c(OC)cc2c1=O	-3.9%
CCOc1ccc(NC(=O)CSc2cn(CCNC(=O)c3ccccc3F)c3ccccc23)cc1	-0.7%
CCCOc1ccccc1C1Oc2nc(SC)nnc2-c2ccccc2N1C(C)=O (stereo unspecified)	-0.2%
COc1cccc(C2C(C(=O)Nc3cccnc3)=C(C)Nc3nc(SCc4ccccc4)nn32)c1 (stereo unspecified)	40%
CCCc1nn2c(=O)cc(COC(=O)c3cccc(NC(=O)COc4ccccc4C)c3)nc2s1	1.4%
Cc1cc(C)cc(NC(=O)C2CCCN2S(=O)(=O)c2ccc3c(c2)CCCC(=O)N3)c1 (stereo unspecified)	-0.3%
COc1ccccc1NC(=O)c1sc2nc(C)c(C(=O)Nc3ccc(C)cc3C)c(-c3ccc(C)o3)c2c1N	-3.9%
CCOc1ccc(-c2cc(-c3nc(-c4cc(OC)c(OC)c(OC)c4)no3)[nH]n2)cc1Cl	-26%
Cc1ccc(NCc2cccn2-c2nnc(N3CCC(C(=O)NC(C)C)CC3)s2)cc1	-2.9%
Cc1ccc(Cn2c(C)c3cnn(CC(=O)NCc4ccccc4)c(=O)c3c2C)cc1	?
CCOC(=O)c1c(S(=O)(=O)N2CCCC(C(=O)NCc3ccc(Cl)cc3)C2)c(C)n(C)c1C (stereo unspecified)	-0.2%
Cc1ccc(SCc2nc(-c3ccc(C(=O)NCC(C)c4ccccc4)cc3)oc2C)cc1 (stereo unspecified)	4.1%
COc1ccc(CN2COc3ccc4c(-c5ccc(OC)cc5)cc(=O)oc4c3C2)cc1	-17%
CCCCN(C)S(=O)(=O)c1ccc(C(=O)Nc2sc3c(c2C(=O)OCC)CCN(C(C)C)C3)cc1	-1.0%
COc1cccc(CNC(=O)CCC(=O)N2CC(C)Sc3ccccc32)c1 (stereo unspecified)	-1.3%
O=C(CSc1nc2c(cnn2-c2ccc(F)cc2)c(=O)[nH]1)Nc1ccc(Br)cc1	-5.4%
CC(C)NC(=O)C1CCC(Cn2c(=O)c3sccc3n(Cc3ccc(F)cc3)c2=O)CC1 (stereo unspecified)	-3.5%
CC(=O)c1ccc(N2CCN(C(=O)C3CCN(S(=O)(=O)c4ccc(Br)s4)CC3)CC2)cc1	-20%
Cn1c(C(c2cc3ccccc3n2C)c2cc3ccccc3n2C)cc2ccccc21	-4.0%
Cc1nc(-c2ccc(C)c(N3CCN(C(=O)Nc4ccc(Br)cc4)CC3)c2)no1	-6.0%
COc1ccc(CNc2nc3c(-c4ccc(C)cc4)nnn3c3ccccc23)cc1	?
Cc1nc2cc(C(=O)NCCC3=CCCCC3)ccc2n1-c1ccc(Br)cc1	-0.6%
COc1cc(N(C)C)c(OC)cc1/C=C1\Cc2ccccc2C1=O	-5.0%
CC(=O)Nc1nonc1-c1nnc(SCc2cccc(Br)c2)n1C	0.5%
COc1ccccc1C1CC(=O)NC(C)=C1C(=O)OC1CCCCCC1 (stereo unspecified)	-14%
CCC(Sc1ncc(S(=O)(=O)c2ccc(C)cc2)c(=O)[nH]1)C(=O)Nc1cc(C)ccc1C (stereo unspecified)	-4.9%
CCOC(=O)c1ccc(N2C(=O)c3n[nH]c(-c4ccco4)c3C2c2ccc(C(=O)OC)cc2)cc1 (stereo unspecified)	-3.0%
O=C(NC1CCCCC1)c1ccc2c(c1)sc1nc(-c3ccc(F)cc3)cn12	10µM*
CCC(=O)Nc1cccc(C(=O)OCc2cc(=O)n3nc(CC)sc3n2)c1	-9.7%
Cn1c(=O)c2c(SCC(=O)NCC3CCCO3)nc(-c3cccc(F)c3)nc2n(C)c1=O (stereo unspecified)	0.6%
COc1ccc(CCC(=O)NCc2ccc3c(c2)CCN3C(=O)c2ccccc2)cc1	-1.9%
COc1ccc(CCNC(=O)NCc2noc3ccc(C)cc23)c(OC)c1	-0.8%
CCc1ccc(CNC(=O)CCN2C(=O)COc3ccccc32)cc1	-1.9%
Cc1ccc(-c2[nH]c3c(c2-c2c(-n4cccc4)n(C)c(=O)[nH]c2=O)c(=O)[nH]c(=O)n3C)cc1	-2.7%
O=C(c1ccccc1)c1ccc2nc(Nc3ccccc3Cl)c3nncn3c2c1	-19%
CC(=O)Nc1ccc(NS(=O)(=O)c2ccc3c(c2)CCCN3C(C)=O)cc1	-4.1%
CCOc1ccc(CCNC(=O)CCCc2cc(-c3ccc(OCC)cc3)on2)cc1	0.1%
CCC(=O)Oc1ccc(C2Nc3ccccc3-c3nnc(SC)nc3O2)cc1 (stereo unspecified)	-0.1%
COc1ccc(OC)c(NC(=O)c2cc(-c3ccc(Cl)s3)nc3ccccc23)c1	?
Cc1cc(=O)n2[nH]c(NC(=O)c3cccc(Cl)c3)nc2n1	0.6%

# More records follow:
Compound,ClpP mod
CC(C)(C)c1ccc(C(=O)NNc2ncnc3c2cnn3-c2ccccc2)cc1,0.8%
O=C(NCCc1ccc(Cl)cc1)c1nnc(Cc2ccc(Cl)cc2Cl)o1,0.5%
O=C(c1ccc2c(=O)n(-c3ccccc3)c(=O)[nH]c2c1)N1CCN(Cc2cccs2)CC1,-9.9%
CCOc1cccc(NC(=O)C2CC(=O)N(CC)C(=Nc3ccc(F)cc3)S2)c1 (stereo unspecified),1.6%
O=C(Nc1cccc(-c2nc3cccnc3s2)c1)c1cccc(Br)c1,?
Cc1cccc(NC(=O)C2CCN(S(=O)(=O)c3ccc(F)cc3)CC2)c1C,1.5%
Cc1cc(C)c2c(=O)cc(C(=O)Nc3sc4c(c3C(=O)NCC3CCCO3)CCCC4)oc2c1 (stereo unspecified),-1.1%
CCOc1ccc(S(=O)(=O)c2cn(C)c3ccccc3c2=O)cc1,0.3%
COc1ccc(CCNC(=O)C(=O)NCC(c2ccc3c(c2)OCO3)N2CCOCC2)cc1 (stereo unspecified),0.7%
Cc1cccc(NC(=O)c2ccc3oc(=O)c(S(=O)(=O)c4ccc(F)cc4)cc3c2)c1C,0.3%
COC(=O)c1ccccc1NC(=O)Cn1c(=O)n(CCC(=O)NCc2ccccc2OC)c(=O)c2ccccc21,-10%
CC(=O)N1CCc2cc(CNS(=O)(=O)c3ccccc3C(F)(F)F)ccc21,-0.4%

# Quoted at random: 2 entries already listed
Compound,ClpP mod
O=C(Nc1cccc(-c2nc3cccnc3s2)c1)c1cccc(Br)c1,?
Cc1cccc(NC(=O)c2ccc3oc(=O)c(S(=O)(=O)c4ccc(F)cc4)cc3c2)c1C,0.3%

# Other results:
Compound,ClpP mod
Nc1c(C(=O)Nc2ccccc2Cl)c2ccccn2c1C(=O)c1ccc(Cl)cc1,-1.9%
CC(=O)Nc1cc([N+](=O)[O-])cc(NC(C)=O)c1NC(C)=O,1.0%
Cc1ccc(S(=O)(=O)c2cn(C)c3cc(N4CCCC(C)C4)c(F)cc3c2=O)c(C)c1 (stereo unspecified),20µM*
COc1cc(OC)cc(-c2nc3nc(C)c(CCC(=O)Nc4ccccc4)c(C)n3n2)c1,-7.0%
COc1cc2ccccc2cc1C(=O)Nc1ccc(Cl)c(-c2nc3ccccc3o2)c1,4.3%
O=C(c1cc2ccc3cccnc3c2[nH]1)N1CCN(c2ccc(Cl)cc2)CC1,33%
CCOc1ccc(-c2cc3nc(C4CCN(C(=O)OC(C)(C)C)CC4)c(C(=O)Nc4cccc(CC)c4)cn3n2)cc1,4.4%
COc1ccc(Cn2c(CCC(=O)Nc3ccc(Br)c(C)c3)nc3cccnc32)cc1,-3.0%
Cc1cc(C)c2c(=O)cc(CSc3nnc(COc4ccccc4C)n3C)[nH]c2c1,-0.9%
Cc1ccc(Cn2c(SCC(=O)NCc3ccccc3)nc3ccsc3c2=O)cc1,-0.2%
CCOC(=O)c1sc2ncn(CC(=O)Nc3cccc(C)c3)c(=O)c2c1C,-1.3%
Cc1c(Cl)cccc1NC(=O)CSc1nc(=O)[nH]c2c1CCC2,-2.8%

# Among those listed so far, 4 contain two or more sulfur atoms.
Compound,ClpP mod
CCCCN(C)S(=O)(=O)c1ccc(C(=O)Nc2sc3c(c2C(=O)OCC)CCN(C(C)C)C3)cc1,-1.0%
CC(=O)c1ccc(N2CCN(C(=O)C3CCN(S(=O)(=O)c4ccc(Br)s4)CC3)CC2)cc1,-20%
CCC(Sc1ncc(S(=O)(=O)c2ccc(C)cc2)c(=O)[nH]1)C(=O)Nc1cc(C)ccc1C (stereo unspecified),-4.9%
Cc1ccc(Cn2c(SCC(=O)NCc3ccccc3)nc3ccsc3c2=O)cc1,-0.2%

# Next section
Compound,ClpP mod
Cc1cc(N2CCN(C)CC2)nc2ccc(NC(=O)Nc3ccc(F)cc3F)cc12,4.0%
Cn1c(=O)c2c(nc(SCC(=O)Nc3ccc(F)c(F)c3)n2Cc2ccccc2F)n(C)c1=O,-2.4%
CCOC(=O)c1cccc(NC(=O)CSc2cc(=O)n(C)c3ccccc23)c1,0.0%
CC(C)(C)c1ccc(OCc2cc(=O)n3c4c(sc3n2)CCCC4)cc1,-3.8%
Cc1cc2oc(C(=O)N(Cc3ccco3)Cc3ccccc3Cl)c(C)c2cc1C,0.4%
Cc1ccc(-n2nc3ccc(NC(=O)c4oc5ccccc5c4C)cc3n2)cc1,-26%
CCc1nc2cccnc2n1-c1ccc(CC(=O)Nc2ccc(C)cc2)cc1,-1.0%
COc1ccccc1C(=O)Nc1ccc(OCc2cc(=O)n3cccc(C)c3n2)cc1,?
Cc1ccc(C(=O)Nc2ccc3oc(-c4ccncc4)nc3c2)c(Cl)c1,4.0%
Cc1ccc(-c2nnc(Nc3cccc(O)c3)c3ccccc23)cc1S(=O)(=O)NCC1CCCO1 (stereo unspecified),-1.3%
Cc1ccc(C)c(CNC(=O)c2ccc3c(c2)nc2n3CCC(C)C2)c1 (stereo unspecified),-0.3%
COc1ccc(N2CCN(C(=O)c3cnc(N4CCOCC4)c4ccccc34)CC2)cc1,-9.8%
O=C1COc2ccc(-c3cc(-c4ccc(F)cc4)c4c(n3)-c3ccccc3OC4)cc2N1,-23%
Cc1ccccc1NC(=O)Cn1c(=O)n(CCCCC(=O)NCc2ccccc2Cl)c(=O)c2ccccc21,-3.3%
COc1ccc(-c2noc(-c3ccc(NCc4ccco4)c([N+](=O)[O-])c3)n2)cc1OC,-1.0%
Cc1cc(C)c(Cn2c(C)c(CNCCCc3ccccc3)c(C(=O)O)c2C)c(C)c1,-0.4%
Cc1oc(-c2ccccc2F)nc1CS(=O)(=O)CC(=O)N1CCN(c2cccc(C(F)(F)F)c2)CC1,-20%
Cc1ccc(S(=O)(=O)N2CCc3cc(C(=O)Nc4c(C)cccc4C(C)C)ccc32)cc1,2.3%
CCOC(=O)c1ccccc1NC(=O)Cn1nnc2sc3c(c2c1=O)CCCC3,-1.1%
Cc1ccc(NS(=O)(=O)c2cc3[nH]c(=O)c(=O)[nH]c3cc2C)cc1Cl,-15%
COc1cccc(C(=O)Nc2c(C(=O)NC(C)(C)C)oc3ccccc23)c1,-27%
COc1ccc(NC(=O)c2oc3ccc(S(=O)(=O)N4CCCCC4)cc3c2C)cc1,171%

# Exported as labelled records: part of the list above.
> CCOc1cccc(NC(=O)C2CC(=O)N(CC)C(=Nc3ccc(F)cc3)S2)c1 (stereo unspecified)
- ClpP mod = 1.6%
> O=C(Nc1cccc(-c2nc3cccnc3s2)c1)c1cccc(Br)c1
- ClpP mod = ?

# Screens: PubChem, National Center for Advancing Translational Sciences (NCATS)
